HSD17B inh = blocks hydroxysteroid 17-beta dehydrogenase activity; Q99714; recombinant HSD17B10, NADH fluorescence kinetic; many of its hits are not listed in these tables; Potency, µM (series often up to 57.1 µM), for inactives: at the top dose activity change, negative = inhibition, actives largely listed as inhibitors; 75,000 compounds, 7.6% hits; AID 893; active means well fitted inhibition curve with a large enough effect; inconclusive means small, poorly fitted or top-dose-only effect; inactive means no such curve, though single readings can be large or run the other way;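 further: the protocol describes HADH2 (HSD17B10) and not the HSD17B4 of the title; nearly all actives have a fitted effect of over 70% in size; most hits overshoot -100% by far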
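20 nM HADH2, pH 9.0 Tris/Tween; cpd preinc 15 min RT; start w/ 1 mM NAD+ + 90 uM b-hydroxybutyryl-CoA; kinetic fluor ex360/em450 q30s x 4 min; delta last-first.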
An asterisk follows results filed as active; & = joins results of further samples; [ ] = dose if it differs, or a comment. On the % scale 0 is the no-effect control and ±100 the full control effect; potency means the concentration at half of the fitted maximal effect. The list is partial, so the mix of outcomes need not match the whole.

`O=C(c1ccccc1F)N1CCN(c2ccccc2F)CC1` gave HSD17B inh 5.6%.
Screening CCn1c(=N)n(CCOc2ccc(OC)cc2)c2ccccc21 returned HSD17B inh 5.7%.
For CCOC(=O)c1c(C)c(C(=O)N(C)C2CCCCC2)c(C)n1C the results were HSD17B inh -2.8%.
Cc1noc(C)c1CSc1ncnc2sc(C)c(C)c12 was read as HSD17B inh -20.4%.
`COc1ccc(-c2cc(-c3cccs3)c(C#N)c(SCC(=O)NCc3ccco3)n2)cc1` gave HSD17B inh 25.1µM*.
O=C(Nc1ccccc1)Nc1nncs1 was read as HSD17B inh 3.1%.
CCN1CCN(C(c2ccc(F)cc2)c2nnnn2Cc2cccs2)CC1 (stereo not drawn) was read as HSD17B inh -4.6%.
For O=C1NC(=O)[C@@](Cc2ccccc2)(c2cccnc2)N1 the results were HSD17B inh -1.3%[11.4 µM].
`O=C(CSc1nc2ccccc2c(=O)n1-c1ccccc1)NCc1ccco1` gave HSD17B inh 1.6%.
Screening CCC(C)C1C(C#N)=C(N)Oc2n[nH]c(C)c21 (stereo not drawn) returned HSD17B inh 7.1%.
For O=C(c1ccc(Cl)s1)N1CCN(c2ccccc2)CC1 the results were HSD17B inh 8.8%.
Screening O=C(COc1ncnc2ccccc12)NCCCN1CCCC1=O returned HSD17B inh inconclusive.
Screening COc1cc2[nH]c(=O)n3nc(-c4ccccc4)nc3c2cc1OC returned HSD17B inh inconclusive.
`N#Cc1ccc(CN2CCC3(CC2)CCN(S(=O)(=O)c2ccccc2)CC3)cc1` gave HSD17B inh 0.8%.
For C[C@@H]1CC2(OC[C@]3(C)O[C@H]23)O[C@H]2C[C@@]3(C)[C@@H]4CC[C@H]5C(C)(C)C(O[C@@H]6OC[C@@H](O)[C@H](O)[C@H]6O)CC[C@@]56C[C@@]46CC[C@]3(C)[C@@H]12 (stereo partly drawn) the results were HSD17B inh -5.3%.
For O=C(Nc1ccc2c(c1)OCCO2)c1ccc(CN2CCOCC2)cc1 the results were HSD17B inh 4.5%.
CCOC(=O)c1c(C)oc2ccc(O)c(CN3CCCCC3)c12 was read as HSD17B inh -5.5%.
Cc1ccc(C2C(C#N)=C(N)Oc3cc4c(cc32)OCO4)cc1 (stereo not drawn) was read as HSD17B inh -11.2%.
`COc1ccc(-c2nc3ccccc3c(=O)n2CCCn2ccnc2)cc1` gave HSD17B inh -2.7%.
`CCOc1ncccc1C(=O)OCc1cc(=O)n2c(n1)sc1ccccc12` gave HSD17B inh -22.0%.
COc1ccc(S(=O)(=O)N2CCC(C(=O)N3CCOCC3)CC2)cc1OC was read as HSD17B inh 7.2%.
Screening Cc1c(Br)cc(-c2nnco2)cc1Br returned HSD17B inh 5.8%.
`CCCc1ccc(Oc2cn[nH]c2-c2ccc(O)cc2O)cc1` gave HSD17B inh 31.6µM*.
For Cc1c(NC(=O)Cn2cnc3c(=O)n(C)c(=O)n(C)c32)cccc1-c1nc2ccccc2o1 the results were HSD17B inh -4.8%.

The final 7 entries of the part above come first, to join the parts.
Cc1ccc(C2C(C#N)=C(N)Oc3cc4c(cc32)OCO4)cc1 (stereo not drawn) was read as HSD17B inh -11.2%.
`COc1ccc(-c2nc3ccccc3c(=O)n2CCCn2ccnc2)cc1` gave HSD17B inh -2.7%.
`CCOc1ncccc1C(=O)OCc1cc(=O)n2c(n1)sc1ccccc12` gave HSD17B inh -22.0%.
COc1ccc(S(=O)(=O)N2CCC(C(=O)N3CCOCC3)CC2)cc1OC was read as HSD17B inh 7.2%.
Screening Cc1c(Br)cc(-c2nnco2)cc1Br returned HSD17B inh 5.8%.
`CCCc1ccc(Oc2cn[nH]c2-c2ccc(O)cc2O)cc1` gave HSD17B inh 31.6µM*.
For Cc1c(NC(=O)Cn2cnc3c(=O)n(C)c(=O)n(C)c32)cccc1-c1nc2ccccc2o1 the results were HSD17B inh -4.8%.
For Cc1onc(-c2ccccc2Cl)c1C(=O)Nc1ccc(CN2CCCC2)cc1 the results were HSD17B inh 0.9%.
Screening CC(=O)NC1C(=O)N=C(SCC(=O)NCc2ccccc2)NC1=O (stereo not drawn) returned HSD17B inh 6.8%.
For Cc1nc2sc3c(c2c(=O)o1)CCCC3 the results were HSD17B inh -5.2%.
For O=C1C2CCCN2C(c2cccc(F)c2)N1c1cccc(Cl)c1 (stereo not drawn) the results were HSD17B inh 0.5%.
NS(=O)(=O)c1cc(C(=O)O)cc(N2CCCC2)c1Oc1ccccc1 was read as HSD17B inh 12.6µM*.
Screening Cc1ccc(SCCNS(C)(=O)=O)cc1 returned HSD17B inh 7.6%.
Screening Cn1cnc(S(=O)(=O)N2CCc3ccccc32)c1 returned HSD17B inh -5.7%.
Screening COc1ccc(C(=O)NC2=C(C#N)CCC2)cc1OC returned HSD17B inh -0.5%.
O=C(c1ccco1)N(CC1CCCO1)c1nc(-c2ccccc2)cs1 (stereo not drawn) was read as HSD17B inh -16.6%.
Screening Cc1cc(C)cc(Nc2ncc3c(n2)CCCC3=O)c1 returned HSD17B inh -5.7%.
Screening CCOC(=O)[C@]1(C(NC(=O)OC)c2ccccc2)CCCC1=O (stereo partly drawn) returned HSD17B inh 4.1%[11.4 µM].
`CS(=O)(=O)N1Cc2ccccc2CC1C(=O)Nc1ccccc1C(N)=O` (stereo not drawn) gave HSD17B inh inconclusive.
For O=c1c2c(n3nnnc3n1Cc1ccccc1)-c1ccccc1CC21CCCC1 the results were HSD17B inh 9.1%.
Screening COc1cc([C@H]2[C@@H]3CCCC[C@]3(O)CCN2Cc2ccccc2F)ccc1O returned HSD17B inh 4.0%.
`CN(C)Cc1c(O)ccc2occ(C(=O)c3ccccc3)c12` gave HSD17B inh -6.3%.
`COC(=O)N1CCC2(CC1)CN(c1ccccc1)C2` gave HSD17B inh 2.1%.
For COC(=O)C(C)Sc1nnc(Cc2cc(=O)[nH]c(=O)[nH]2)n1-c1cccc(OC)c1 (stereo not drawn) the results were HSD17B inh 1.4%.
CN(C)/C=N/c1sc2c(c1C#N)CCC2 was read as HSD17B inh 2.6%.
For CCOc1ccc(C(=O)Nc2ccc(S(=O)(=O)N3CCOCC3)cc2)cc1OCC the results were HSD17B inh -5.5%.
`CCC(=O)N[C@@H]1Cc2ccccc2[C@@H](c2ccccc2)C1` gave HSD17B inh 1.7%.
CCN(CC)C(=O)C(C)OC(=O)COc1ccc(Cl)cc1C (stereo not drawn) was read as HSD17B inh -6.1%.
CCOC(=O)c1ccc(N2C(=O)C3C(C2=O)C(C(=O)c2ccc(Cl)cc2)N2CCCC32)cc1 (stereo not drawn) was read as HSD17B inh inconclusive.
Screening Cc1[nH]c(=O)[nH]c(=O)c1S(=O)(=O)N1CCN(c2cccc(Cl)c2)CC1 returned HSD17B inh 9.1%.
Screening CC(=O)c1ccccc1OCCCN1CCCCC1 returned HSD17B inh 3.1%.

Quoted at random: 3 records from the list
CCN(CC)C(=O)C(C)OC(=O)COc1ccc(Cl)cc1C (stereo not drawn) was read as HSD17B inh -6.1%.
For Cc1onc(-c2ccccc2Cl)c1C(=O)Nc1ccc(CN2CCCC2)cc1 the results were HSD17B inh 0.9%.
Cc1noc(C)c1CSc1ncnc2sc(C)c(C)c12 was read as HSD17B inh -20.4%.

Continuation:
COc1cc(OC)c(-c2nc3cnccc3n2C)cc1OC was read as HSD17B inh 4.7%.
Screening COc1ccc(CN2C(=O)[C@@H]3C(c4ccc(F)cc4)=NO[C@@H]3C2=O)cc1 returned HSD17B inh -1.8%.
Screening NC(N)=NC(=O)c1nc(Cl)c(N2CCCCCC2)nc1N returned HSD17B inh -1.3%&-11.8%.
For Cc1cc(-c2nn3c(-c4ccccc4)nnc3s2)c2ccccc2n1 the results were HSD17B inh 3.3%.
Screening CCSc1nc2c([nH]c3ccccc32)c(=O)n1C returned HSD17B inh inconclusive.
`COc1ccc(C2C(C(=O)N3CCOCC3)CCC(=O)N2c2ccc(OC)cc2)cc1` (stereo not drawn) gave HSD17B inh -0.3%.
`CCOC(=O)N1CCN(C(=O)c2ccc3nc(C)sc3c2)CC1` gave HSD17B inh 13.6%.
Screening CO[C@@H]1COC(=O)C/C=C\[C@H](C)COC(=O)[C@H](Cc2ccccc2)NC(=O)C/C=C\[C@H]1C returned HSD17B inh -4.7%[11.4 µM].
For Cc1ccc(-n2c(C)nc3oc4ccccc4c(=O)c3c2=O)cc1 the results were HSD17B inh inconclusive.
`O=C(c1cccs1)N1CCn2c1nc1ccccc12` gave HSD17B inh 3.4%.
`Cc1nn(C)cc1CNC(=O)C1C2CCC(O2)C1C(=O)O` (stereo not drawn) gave HSD17B inh 10.8%.
`O=C(NCc1ccccc1)N1CCn2c(nc3ccccc32)C1` gave HSD17B inh 5.9%.
CSc1nnnc2ccccc12 was read as HSD17B inh 7.7%[11.4 µM].
For O=C(C1CCCCC1)N1CCC(c2nc3ccccc3[nH]2)CC1 the results were HSD17B inh 2.6%.
Cc1cnc(CNc2ccnc(-c3ccoc3)n2)cn1 was read as HSD17B inh -4.2%.
For CC(C)c1ccc(NS(=O)(=O)c2cn(C)c(=O)n(C)c2=O)cc1 the results were HSD17B inh -7.7%.
Screening COc1ccccc1NC(=O)COc1ccc(CO)cc1Cl returned HSD17B inh 4.8%.
For Cc1ccc(S(=O)(=O)Cc2ccc(C(=O)NCCCN3CCCC3=O)o2)cc1 the results were HSD17B inh -5.5%.
For O=c1c(O)c(-c2ccc(O)c(O)c2)oc2c(OC[C@@H]3O[C@@H](O)[C@@H](O)[C@H](O)[C@H]3O)c(O)cc(O)c12 the results were HSD17B inh inconclusive.
CNc1sc(C(=O)c2cccs2)c(N)c1-c1nc2ccccc2s1 was read as HSD17B inh -25.4%.
`O=C(O)[C@@H]1Cc2c([nH]c3ccccc23)[C@@H](CCCCO)N1` gave HSD17B inh 0.1%[11.4 µM].
Screening COC(=O)N1CCC[C@@]2(CCN(c3ncccn3)C2)C1 returned HSD17B inh inconclusive.
`O=C1CSC(=S)N1Cc1cccnc1` gave HSD17B inh -0.9%.
For CCCCn1c(NC(=O)c2ccccc2)nc2ccccc21 the results were HSD17B inh inconclusive.
Cc1ccc(OC(=O)CCC(=O)Nc2ccc(S(=O)(=O)Nc3cc(C)on3)cc2)cc1 was read as HSD17B inh -9.5%.
CCN(CC)CCCC(C)n1c(-c2ccccc2)nc2c(N3CCOCC3)nc(C)nc21 (stereo not drawn) was read as HSD17B inh 25.1µM*.
For O=C(CN1C(=O)CCC1=O)Nc1ccc2c3c(cccc13)CC2 the results were HSD17B inh 10.2%.
`C1=CC2c3ccccc3NC(c3ccncc3)C2C1` (stereo not drawn) gave HSD17B inh inconclusive.
For CCOc1ccc(NC(=O)CN2CCC(NC(=O)C3CCCCC3)CC2)cc1 the results were HSD17B inh 2.4%.
C=CCNC(=O)CCCC(=O)NCC=C was read as HSD17B inh 0.4%.
For COc1ccc(OC)c(NC(=O)CNC(=O)Cn2cnc3ccccc3c2=O)c1 the results were HSD17B inh 0.1%.
COc1cccc(-c2nc(NC3CC3)c3ccccc3n2)c1 was read as HSD17B inh inconclusive.
Screening CCCC(=O)Nc1nc2ccc3nc(C)sc3c2s1 returned HSD17B inh inconclusive.
Screening COc1cccc(-c2nn(C)c3sc(C(=O)N4CCN(c5ccccn5)CC4)cc23)c1 returned HSD17B inh -9.1%.
For CCOc1ccc(Nc2nc(Cc3nnc(SCC(=O)NCC4CCCO4)n3C)cs2)cc1 (stereo not drawn) the results were HSD17B inh 0.1%.
`c1ccc(-c2nc(-n3ccnc3)nc(-n3ccnc3)n2)cc1` gave HSD17B inh 0.7%.
For COc1ccc(-c2nc(C#N)c(NCCCN3CCOCC3)o2)cc1 the results were HSD17B inh 31.6µM*.
For COCCn1c(-c2ccc(Cl)cc2)cnc1SCC(=O)NCc1cccs1 the results were HSD17B inh inconclusive.
CC(C)=C1C2CCC1C(C(=O)NCc1ccccc1)C2C(=O)O (stereo not drawn) was read as HSD17B inh -3.1%.
`CC(=O)N(CN1C(=O)c2ccccc2C1=O)c1ccccc1` gave HSD17B inh 11.4%.
`O=C(O)c1cscn1` gave HSD17B inh 3.7%.
`FC(F)(F)c1nc2nncn2c2c1CCCCC2` gave HSD17B inh 25.1µM*.
O=C(CNS(=O)(=O)c1ccc(Br)s1)NCC1COc2ccccc2O1 (stereo not drawn) was read as HSD17B inh 7.4%.
For N#CCCn1nc(-c2ccccc2)cc1-n1c(C(F)(F)F)nc2ccccc21 the results were HSD17B inh 0.7%.
`COc1ccc(OC)c2sc(N3CCCCC3)nc12` gave HSD17B inh 0.0%.
Screening CCOC(=O)c1ccc(NC(=O)CSc2nc3c(c(=O)n2C)SC(C)C3)cc1 (stereo not drawn) returned HSD17B inh -16.0%.
For CC(C)NC(=O)c1ccccc1-c1nc(-c2ccccc2Cl)no1 the results were HSD17B inh -1.7%.
O=C(O)Cc1ccc(OCCNC[C@H](O)c2ccccc2)cc1 was read as HSD17B inh 7.7%.
For Cc1cc(C)c2nc3c(c([C@H](O)[C@@H]4CCCCN4)c2c1)CC/C3=C/c1ccc(Cl)cc1 the results were HSD17B inh 9.8%[11.4 µM].
Screening CCOC(=O)N1CCC(NC(=O)C(NC(=O)C2CCCCC2)C(C)C)CC1 (stereo not drawn) returned HSD17B inh 11.0%.
For CCCCc1nc2ccccc2c(NC(=O)CN2CCN(C)CC2)c1CCC the results were HSD17B inh 0.4%.
Cc1cc(C)n(S(=O)(=O)c2ccc(C)c(C)c2C)n1 was read as HSD17B inh 2.2%.
CCOc1ccccc1NC(=O)N1CCCC1C(=O)Nc1ccc(-n2cnnn2)c(C)c1 (stereo not drawn) was read as HSD17B inh -0.9%.
COC(=O)NCC(c1cccnc1)N1CCN(c2ccccc2)CC1 (stereo not drawn) was read as HSD17B inh 6.0%.
For Cc1ccc(NS(=O)(=O)c2cc(C(=O)N3CCOCC3)ccc2C)cc1 the results were HSD17B inh 0.4%.

Compound activity deposited in PubChem BioAssay by National Center for Advancing Translational Sciences (NCATS).
